From PubChem BioAssay
FGF22 binding: binders of human FGF22 protein, primary screen, FGF22 synaptogenesis inhibitor project, biophysical, thermal shift, single point | calls only at 9.99 µM | AID 651658, 2012 | Fibroblast growth factor 22 (Homo sapiens), Q9HCT0 | recombinant FGF22 thermal shift, SYPRO orange fluorescence; percent of sucrose octasulfate shift, DMSO zero | actives 1.5% (n = 340,000);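 active = melting point raised past a set limit in the mean and every replicate; inconclusive = no clear call; three in four hits are not shown here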
Target sequence (Q9HCT0 whole entry, looked up): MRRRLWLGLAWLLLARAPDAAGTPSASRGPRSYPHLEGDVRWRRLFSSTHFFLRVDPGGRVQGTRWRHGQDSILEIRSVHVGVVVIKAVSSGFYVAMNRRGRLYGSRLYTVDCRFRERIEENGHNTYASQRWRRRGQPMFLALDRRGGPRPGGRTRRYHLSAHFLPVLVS
UCH37 inh: inhibitors of human UCH37 deubiquitinase, primary screen, biochemical, Ub-AMC cleavage, fluorescence; Ubiquitin carboxyl-terminal hydrolase isozyme L5 (Homo sapiens), Q9Y5K5; purified proteasome/UCH37; inhibition, % (no concentration beside the values); actives 0.33% (n = 330,000);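 active = mean of two replicates above 20%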;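 note: 0% = compound-free wells with enzyme and 100% = wells lacking proteasome; stock transfer was 100 nL into about 20 µL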
Target sequence (Q9Y5K5 whole entry, looked up): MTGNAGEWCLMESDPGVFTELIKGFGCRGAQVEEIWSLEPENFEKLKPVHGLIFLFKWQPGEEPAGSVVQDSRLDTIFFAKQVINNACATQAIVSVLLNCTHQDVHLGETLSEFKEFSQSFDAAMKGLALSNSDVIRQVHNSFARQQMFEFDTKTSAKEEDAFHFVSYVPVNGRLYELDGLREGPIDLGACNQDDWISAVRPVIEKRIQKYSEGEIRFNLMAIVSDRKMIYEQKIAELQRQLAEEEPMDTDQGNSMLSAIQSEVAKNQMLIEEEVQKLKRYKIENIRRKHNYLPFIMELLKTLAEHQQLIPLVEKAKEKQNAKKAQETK
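System: Proteasome-associated human UCH37 deubiquitinase; Input: 0.15 nM proteasome in added enzyme buffer; Also added: Ub-AMC substrate from 1 µM stock; Incubation: 30 min compound-proteasome preincubation then 25 min substrate reaction, room temperature; Detection: fluorescence, ex 355 nm, em 460 nm; Read-out: % inhibition of Ub-AMC cleavage fluorescence; Benchmarks: no-proteasome and no-compound wells.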
RanGTP-Imp inh: inhibitors of RanGTP-importin-beta interaction, primary screen, biochemical, FRET, CFP-Ran, YFP-importin-beta, homogeneous | Ran GTPase (GTP-bound) - importin-beta complex | cell-free CFP-Ran/YFP-importin-beta FRET ratio | inhibition, % (test concentration not listed) | actives 1.1% (n = 300,000);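 active = most replicates above 15%; inconclusive = exactly half above 15%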;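 note: 0% = DMSO wells and 100% = Ran loaded with GDP instead of GTP; wells of about 40 µL received 100 nL stock; the first replicate is given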
* = called active by the depositor; i = inactive; ? = inconclusive; . = no result given. This is a subset. The share of hits here may be higher or lower than overall.

smiles,UCH37 inh,FGF22 binding,RanGTP-Imp inh
Cc1ccc(C=NNC(=O)c2ccc(Br)o2)s1,2.0,.,.
C=CC[C@@H]1C=C[C@H](ON=C[C@@H](NS(=O)(=O)c2ccc(C)cc2)[C@H](C)/C=C/CC(=O)OC)[C@@H](CO)O1,1.2,.,.
COC(=O)NN=Cc1cc([N+](=O)[O-])cc(Br)c1O,4.8,.,.
CCOc1cc(C=NN=C(N)N)ccc1OCc1ccc(Cl)cc1,1.8,.,.
COc1ccc(O[C@H]2C=C[C@@H](c3ccccc3)O[C@@H]2CON=CC[C@@H]2C=C[C@H](OC(C)=O)[C@@H](COC(C)=O)O2)cc1,0.8,.,.
CCN1C(=O)[C@H]2[C@H]3[C@H](O)[C@H](O)CC(=NOC[C@@H](C)[C@H](OCc4ccccc4)C(C)C)[C@@H]3CC[C@H]2C1=O,2.8,.,.
O=C(NC=NOCc1cccc(C(F)(F)F)c1)N1OC[C@@H]2COc3ccc4ccccc4c3[C@@H]21,5.6,.,.
COC(=O)[C@@H]1CC[C@H](C)[C@@H](c2ccc(C)cc2)N1C(=O)c1ccc(C=NOCC[C@@H]2C=C[C@H](OC(C)=O)[C@@H](COC(C)=O)O2)cc1,3.9,.,.
CCOC(=O)c1c(NC(=O)C(=O)NN=Cc2ccc(O)c(OC)c2)sc2c1CCCCC2,-6.8,.,.
Cc1ccsc1C=NNC(=O)c1ccccn1,2.0,.,.
COc1ccc(/C=C/C(=O)Oc2cccc(C=NNC(=O)COc3c(C)cccc3C)c2)cc1,-2.0,.,.
CCCNC(=O)OC[C@H]1O[C@H](CCON=C[C@@H](NS(=O)(=O)c2ccc(C)cc2)[C@H](C)/C=C/CC(=O)OC)C=C[C@@H]1Oc1ccc(OC)cc1,-1.7,.,.
O=c1nc2sc(=Cc3ccco3)c(=O)n2nc1Cc1ccccc1,4.7,.,.
CC(/C=C/c1ccc2c(c1)OCO2)=NNC(=O)c1cccnc1,7.0,.,.
C=CCn1c(=C2C(=O)NN=C2C)sc(=C2Sc3ccccc3N2CC)c1=O,3.7,.,.
CCS/C(N)=N/N=Cc1cc(C)ccc1O,0.2,.,.
Cc1[nH]c(=O)[nH]c(=O)c1C=NNC(=O)[C@@H](NC(=O)OC(C)(C)C)C(C)C,1.1,.,.
Cc1ccc(C=NNc2nc3ccccc3[nH]2)s1,-0.1,.,.
CCn1nc(C)c(C=NNC(=O)Cn2nc(C)cc2C)c1C,-1.0,.,.
C#CCOCCOCCOCCNc1nc(N2CCN(C(=O)[C@H](CCC(=O)O)n3cc(C(N)Cc4ccc(O)cc4)nn3)CC2)nc(N2CCN(C(=O)[C@H](Cc3ccc(O)cc3)n3cc(C(N)CC(C)C)nn3)CC2)n1 (some centres not stated),3.3,.,?

Whole records, quoted from the list. Screens in order: UCH37 inh, FGF22 binding, RanGTP-Imp inh
`COc1ccc(/C=C/C(=O)Oc2cccc(C=NNC(=O)COc3c(C)cccc3C)c2)cc1` as listed: -2.0, ., .
`CCOc1cc(C=NN=C(N)N)ccc1OCc1ccc(Cl)cc1` as listed: 1.8, ., .
`CCn1nc(C)c(C=NNC(=O)Cn2nc(C)cc2C)c1C` as listed: -1.0, ., .
`C=CCn1c(=C2C(=O)NN=C2C)sc(=C2Sc3ccccc3N2CC)c1=O` as listed: 3.7, ., .

(more compounds)
smiles,UCH37 inh,FGF22 binding,RanGTP-Imp inh
CCOC(=O)N1C2=NC(C(=O)OC)=C(C(=O)OC)[C@@H]3N(Cc4ccccc4)c4ccccc4[C@]23C[C@H]1C(=O)OC,1.5,.,-2.5
C#CCOCCOCCOCCNc1nc(N2CCN(C(=O)[C@H]([C@@H](C)CC)n3cc([C@@H](N)Cc4ccc(O)cc4)nn3)CC2)nc(N2CCN(C(=O)[C@H](CCCCN)n3cc([C@@H](N)CO)nn3)CC2)n1,0.0,.,0.7
CCN1C(=NCCc2cccnc2)N[C@@H](c2ccccc2)C(C(=O)OC)=C1C,0.3,.,-3.4
CCC(C)Sc1ccc(-c2nc3ccc(C)cn3c2NC2CCCCC2)cc1 (configuration not stated),-92,.,3.6
CC(C)C[C@@H]1NC(=O)[C@H](Cc2ccc(O)cc2)NC(=O)[C@H](CCC(N)=O)NC(=O)c2cc([N+](=O)[O-])cc(I)c2NCC[C@@H](C(N)=O)NC1=O,7.0,.,-3.6
COCCN1C(=O)N[C@H](c2cccc(C(F)(F)F)c2)C(C(=O)OC)=C1C,1.6,.,-0.6
COc1ccc(C2/C=C\CN(S(=O)(=O)/C=C/c3ccccc3)[C@H](Cc3ccccc3)C(=O)N2Cc2ccc(F)cc2)cc1 (some centres not stated),6.0,.,8.9
CN(C)CCc1c[nH]c2ccc(C[C@H]3COC(=O)N3)cc12,-0.6,.,0.9
C=CCN1c2ccccc2[C@]23C[C@@H](C(=O)OC)N(C(=O)c4cc(C)oc4C)C2=NC(C(=O)OC)=C(C(=O)OC)[C@H]13,0.1,.,0.7
Clc1ccc(C2[C@H]3CN(Cc4ccc(-c5ccccc5)cc4)[C@H](c4ccccc4)C34CC2(c2cccnc2)C4)cn1 (some centres not stated),0.0,.,-0.3
COC(=O)C1=C(C)N(Cc2ccco2)C(=O)N[C@H]1c1ccc(Br)cc1,5.1,.,-2.9
N[C@H]1CONC1=O,5.2,.,-6.7
O=C(O[C@H]1[C@H](Oc2ccccc2COC(=O)C2(O)C=CCCC2=O)O[C@H](CO)[C@@H](O)[C@@H]1O)c1ccccc1 (some centres not stated),3.6,.,3.1
COc1ccc(CN2C(=O)Cc3c2nc(N)c2c(N)nc(N4CCCCC4)c(C#N)c32)cc1,-22,.,?
CC(C)(C)C(O)/C=C/c1ccc2c(c1)OCO2 (configuration not stated),4.4,.,-2.1
COc1ccc(-c2ccccc2C2Cc3nnccc3CN2)cc1 (configuration not stated),.,i,.
O=C(N[C@@H](Cc1cccnc1)C(=O)N1CCC[C@H]1C(=O)NC1CCCC1)c1ccccc1,.,i,.
O=C(NCc1ccccc1)C(c1ccco1)N1CCN(CCN2CCOCC2)CC1 (configuration not stated),.,i,.
COc1ccc(NC(=O)N(C)C[C@H]2OCCCC[C@@H](C)Oc3ccc(NC(=O)c4ccncc4)cc3C(=O)N([C@H](C)CO)C[C@@H]2C)cc1,.,i,.
O=C(N[C@H](Cc1ccccc1)C(=O)N1CCN(Cc2ccccn2)CC1)[C@H]1O[C@@H](n2ccc(=O)[nH]c2=O)[C@H](O)[C@@H]1O,.,i,.

Additional structures:
smiles,UCH37 inh,FGF22 binding,RanGTP-Imp inh
O=C(CN1CCOCC1)N1CC[C@@H]2[C@H]1c1cc(Br)ccc1N[C@@H]2CO,.,i,.
CCN=C1NC(c2ccc(C(F)(F)F)cc2)C(C(=O)OC)=C(C)N1Cc1cccc(C(F)(F)F)c1 (configuration not stated),.,i,.
COc1ccc(NC(=O)N(C)C[C@@H]2Oc3ccc(NC(=O)Nc4c(C)noc4C)cc3C(=O)N([C@@H](C)CO)C[C@@H]2C)cc1,.,i,.
CCNC(=O)C[C@@H]1CC[C@@H]2[C@H](COc3ccc(NC(=O)c4ccccc4Cl)cc3C(=O)N2C)O1,.,i,.
O=C(C[C@@H]1CC[C@H]2[C@@H](COC[C@@H](O)CN2C(=O)c2ccncc2)O1)NCc1cccc(F)c1,.,i,.
Cc1ccc(S(=O)(=O)N(C)C[C@@H]2Oc3ccc(NS(=O)(=O)c4ccc(F)cc4)cc3C(=O)N([C@@H](C)CO)C[C@@H]2C)cc1,.,i,.
C[C@H](CO)N1C[C@H](C)[C@@H](CN(C)S(C)(=O)=O)Oc2ccc(NC(=O)Cn3cnnn3)cc2CC1=O,.,i,.
COCCNC(=O)C[C@@H]1C[C@@H]2c3cc(NC(=O)Nc4ccc(F)cc4)ccc3O[C@@H]2[C@H](CO)O1,.,i,.
CN1c2ccc(C3=CCCCC3)cc2[C@@H]2[C@@H](CCN2S(=O)(=O)c2ccc(F)cc2)[C@H]1CO,.,i,.
COc1ccc(CN(C)C[C@@H]2OCCCC[C@H](C)Oc3ccc(NS(=O)(=O)c4c(C)noc4C)cc3C(=O)N([C@H](C)CO)C[C@@H]2C)cc1,.,i,.
N#Cc1cccc(-c2ccc3c(c2)[C@@H]2[C@@H](CCN2C(=O)CN2CCOCC2)[C@H](CO)N3)c1,.,i,.
O=C(Nc1ccc2c(c1)[C@H]1C[C@H](CC(=O)N3CCOCC3)O[C@@H](CO)[C@H]1O2)c1ccc2c(c1)OCO2,.,i,.
C[C@H]1CCCCO[C@@H](CN(C)Cc2ccc3c(c2)OCO3)[C@@H](C)CN([C@@H](C)CO)C(=O)c2cc(NS(=O)(=O)c3cn(C)cn3)ccc2O1,.,i,.
COc1ccc(S(=O)(=O)Nc2ccc3c(c2)C(=O)N([C@@H](C)CO)C[C@H](C)[C@H](CN(C)C(=O)Nc2ccccc2)OCCCC[C@@H](C)O3)cc1,.,i,.
C[C@@H]1CCCCO[C@@H](CN(C)S(=O)(=O)c2ccc(Cl)cc2)[C@@H](C)CN([C@@H](C)CO)C(=O)c2cc(NS(=O)(=O)c3ccc(Cl)cc3)ccc2O1,.,i,.
O=C(Cc1c[nH]c2ccccc12)Nc1ccc(Nc2cccnc2)c(-c2cc(F)cc(F)c2)c1,.,i,.
CC(C)C(=O)Nc1ccc2c(c1)C(=O)N(C)[C@H]1CC[C@H](CC(=O)N[C@H](C)c3ccccc3)O[C@H]1CO2,.,i,.
COc1ccccc1C#Cc1ccc2c(c1)[C@@H]1[C@@H](CCN1C(=O)CN1CCOCC1)[C@@H](CO)N2,.,i,.
CCNC(=O)N(C)[C@H]1C[C@H]2c3[nH]c4c(-c5ccc6c(c5)OCO6)cccc4c3CCN2C(=O)[C@H]1[C@H](C)O,.,i,.
Cc1ccc(S(=O)(=O)Nc2ccc3c(c2)C(=O)N([C@H](C)CO)C[C@H](C)[C@H](CN(C)S(=O)(=O)c2ccc(Cl)cc2)OCCCC[C@H](C)O3)cc1,.,i,.

Following part:
smiles,UCH37 inh,FGF22 binding,RanGTP-Imp inh
C[C@@H]1CCCCO[C@@H](CN(C)Cc2ccc(C(F)(F)F)cc2)[C@H](C)CN([C@H](C)CO)C(=O)c2cc(NC(=O)Nc3cccc4ccccc34)ccc2O1,.,i,.
Cn1cnc(CCNC(=O)C[C@@H]2CC[C@H]3[C@@H](COC[C@H](O)CN3C(=O)Nc3ccc(C(F)(F)F)cc3)O2)c1,.,i,.
COC(=O)C1=C(C)N(Cc2ccc(Br)cc2)C(=S)NC1c1cccc(Br)c1 (configuration not stated),.,i,.
Cc1noc(C)c1NC(=O)N(C)C[C@@H]1OCCCC[C@H](C)Oc2ccc(NC(=O)Nc3cccc4ccccc34)cc2C(=O)N([C@@H](C)CO)C[C@H]1C,.,i,.
COCCNC(=S)N1C[C@H]2CON(C)[C@H]2C[C@H]1c1ccccc1Br,.,i,.
Cc1cccc(-c2ccc([C@@H]3[C@@H]4CN(C(=O)CN(C)C)C[C@H]3N4)cc2)c1,.,i,.
C[C@@H]1CCCCO[C@@H](CN(C)C(=O)Cc2ccccc2)[C@@H](C)CN([C@@H](C)CO)C(=O)c2cc(NC(=O)CCC(F)(F)F)ccc2O1,.,i,.
O=S(=O)(c1ccccc1)N1CCCCN2[C@H](CO)[C@H](c3ccc(-c4ccccc4F)cc3)[C@@H]2C1,.,i,.
O=C(C[C@@H]1C[C@H]2c3cc(NC(=O)Nc4ccccc4)ccc3O[C@H]2[C@@H](CO)O1)NCc1cccnc1,.,i,.
COc1ccc2c3c(n(C)c2c1)[C@@H](CO)N(CC1CC1)CC31CN(C(=O)Nc2ccccc2)C1,.,i,.
C[C@@H]1CCCCO[C@@H](CN(C)S(=O)(=O)c2ccc(F)cc2)[C@H](C)CN([C@@H](C)CO)C(=O)c2cc(NC(=O)Cc3ccccc3)ccc2O1,.,i,.
C/C=C/c1ccc([C@H]2[C@@H](CO)N(C(=O)C3CC3)[C@H]2CN(C)C(=O)CC2CC2)cc1,.,i,.
COc1ccc(NC(=O)N(C)C[C@H]2Oc3ccc(NS(=O)(=O)c4cccs4)cc3CC(=O)N([C@H](C)CO)C[C@@H]2C)cc1,.,i,.
Cc1[nH]c2ccccc2c1CC(=O)Nc1ccc(Oc2cccnc2)cc1,.,i,.
Cc1noc(C)c1NC(=O)Nc1ccc2c(c1)CC(=O)N([C@@H](C)CO)C[C@H](C)[C@@H](CN(C)S(C)(=O)=O)O2,.,i,.
COc1ccc2c(c1)[C@@]1(OCCC=C[C@H]1C)C(=O)N2CC1CC1,.,i,.
